# High-throughput results from PubChem BioAssay.
# Anthrax LT inh: qHTS Assay for Anthrax Lethal Toxin Internalization | Cells, anthrax lethal toxin internalization, FRET ratio (460/530) | Potency, µM (titrated, usually from 40 µM), inactives show top-dose activity change, negative = inhibition, actives largely listed as inhibitors | actives 0.67% (n = 70,000); active = well fitted falling ratio curve with the 530 nm signal flat; inconclusive = other ratio curves, or a change in one channel alone; inactive = flat curves in the ratio and both channels; the % refers to the ratio; further: on the % scale 0 is the no-effect control and ±100 the full control effect; nearly all actives have a fitted effect of over 50% in size; tested in ME-180 cells; beta-lactamase reporter
# SmPrx2 inh: Schistosoma Mansoni Peroxiredoxins (Prx2); S. mansoni Prx2 activity coupled to TGR/GSH (TGR is thioredoxin glutathione reductase), NADPH fluorescence loss, qHTS; some inactives read as strong as hits; Potency, µM; actives 0.07% (n = 65,000); active means full or partial inhibition curve with a strong effect at the top dose; inconclusive means weaker partial or single-point curve; inactive means no accepted curve; further: series up to 57 µM; many of its hits are not listed in these tables
#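 Prx2 inhibition was measured as reduced NADPH consumption when electrons flowed from NADPH through TGR and glutathione to Prx2 and H2O2. Plates were read kinetically over 8 min; enzyme reagents were held at 4 deg C during dispensing.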
# The depositor's hits bear a star; u = inconclusive; x = not tested or not shown; & = joins results of further samples; [ ] = dose if it differs, or a comment. Potency means the concentration at half of the fitted maximal effect.
SMILES,Anthrax LT inh,SmPrx2 inh
CCN(CCNC(=O)c1cc(C)nn1-c1ccccc1)c1ccccc1,-21%,>57
Cc1noc(C)c1S(=O)(=O)N1CCC2(CC1)OCCO2,12%,>57
Cc1ccc(S(=O)(=O)Cc2ccc(C(=O)N3CCC4(CC3)OCCO4)o2)cc1,u,>57
Cc1c(N)cccc1[N+](=O)[O-],-2%,x
CCC(=O)N=C1SC2CS(=O)(=O)CC2N1c1cccc(OC)c1 (configuration not stated),-10%,>57
CCOc1ccc(N(CC(N)=O)S(=O)(=O)c2ccc(F)cc2)cc1,-3%,>57
COc1ccc2cc(CN(Cc3cccnc3)Cc3nnnn3Cc3ccccc3)c(=O)[nH]c2c1,4%,>57
CC(=O)Nc1cccc(Oc2ccc3c(c2)C(=O)N(CCC(=O)O)C3=O)c1,6%,>57
Cc1cccc(NC(=O)N2CCC(c3nc4ccccc4o3)CC2)c1,-4%,>57
Cc1ccc(N(C(C)C(=O)Nc2ccccc2C(=O)N2CCOCC2)S(C)(=O)=O)cc1C (configuration not stated),1%,>57
O=S(=O)(NCCSc1nc2ccccc2o1)c1ccccc1,u,x
CC1(c2ccc(Cl)cc2)NC(=O)N(CC(=O)NC(=O)NCc2ccco2)C1=O (configuration not stated),u,>57
CCOC(=O)N1CCC(NC(=O)CSc2cc(=O)n(C)c3ccccc23)CC1,-8%,>57
O=C(Nc1ccc2c(c1)Cc1ccccc1-2)[C@@H]1[C@H](C(=O)O)[C@]2(Cl)C(Cl)=C(Cl)[C@@]1(Cl)C2(Cl)Cl,-14%[8 µM],>57
CCCNC(=O)N1N=C(c2ccc(N)cc2)c2cc3c(cc2[C@H]1C)OCO3,u,>57
CC(C)(C)C(=O)Oc1cc(N)n(S(=O)(=O)c2ccccc2)n1,-2%,>57
COc1ccc(CCNC(=O)c2nnn(CC(=O)Nc3ccccc3C)c2N)cc1OC,1%,>57
Cc1cc(C(=O)N[C@H](c2ccccc2)[C@@]2(C)C[C@@H]2[C@@H](C)C(=O)Nc2ccc3ccccc3c2)n(C)n1,10µM*,>57
c1ccc(CNc2c3c(nc4ncnn24)CCCC3)nc1,-10%,>57
COc1ccc(N(CC(=O)Nc2cc(C)on2)S(=O)(=O)c2cc(C)ccc2C)cc1,-24%,>57
O=C1NC(=O)C(CC(=O)N(c2ccccc2)C2(C(=O)NC3CCCC3)CCCCC2)N1 (configuration not stated),-2%,>57
CC1(C)CC(=O)C2=C(C1)OC(N)=C(C#N)C2C#Cc1ccccc1 (configuration not stated),0%,>57
CCCCn1c(=NC(=O)c2ccc3c(c2)OCO3)c(C#N)cc2c(=O)n3cccc(C)c3nc21,0%,>57
O[C@@H](c1cc(-c2ccccc2)nc2c1ccc1ccccc12)[C@@H]1CCCCN1,-10%[8 µM],>57
COc1ccc(-c2noc(CCN3C(=O)c4ccccc4C3=O)n2)cc1OC,1%,>57
Cc1ccc(S(=O)(=O)N2CCC(C(=O)N[C@@H](C)C(=O)NCC3CCCO3)CC2)cc1 (some centres not stated),x,>57
CC(=O)Nc1cccc(-c2nnc(SCC(=O)N3CCCCC3)n2C)c1,2%,>57
COc1ccc(C(=O)Nc2ccc(Cl)cc2C(=O)NCCO)cc1,10%,>57
CCC(=O)Nc1cccc(NC(=O)c2ccc3c(c2)OCCO3)c1,u,>57
O=C(NCc1cccs1)c1cc2c(s1)CS(=O)(=O)C2,10%,>57
CCc1ccccc1N1CC23C=CC(O2)C(C(=O)OC)C3C1=O (configuration not stated),-10%,>57
C[C@@H]1NCC[C@H](CC(=O)O)[C@H]1CC(=O)O,-5%[8 µM],>57
NC(=NCCC[C@H](N)C(=O)O)NO,-1%,>57
O=S(=O)(c1ccccc1)n1nc(-c2ccccc2)nc1NCc1ccco1,-13%,>57
COc1ccc2nc(NC(=O)CSC3=NCCS3)sc2c1,-17%,>57
Cc1ccc(NC(=O)CSc2nnc(-c3ccc(S(=O)(=O)N4CCOCC4)cc3)n2C)cc1,-14%,>57
O=c1[nH]c(CN2CCN(C/C=C/c3ccccc3)CC2)nc2cc(Cl)ccc12,-4%,>57
O=C(OCCNC(=O)c1cc2ccccc2oc1=O)c1cccnc1,-9%,>57
Fc1ccc2[nH]c3c(N4CCSCC4)ncnc3c2c1,x,>57
O=C(NC1CC2CCC(C1)N2Cc1nnnn1Cc1ccco1)NC12CC3CC(CC(C3)C1)C2 (configuration not stated),-16%,>57
O=C(CCN1CCCCC1)c1ccc2c(c1)OCCO2,1%,>57
COC(=O)c1ccc(CSc2ccc3nnc(-c4ccccn4)n3n2)o1,28%,>57
Cn1c(=O)c2c(SCC(=O)NCC3CCCO3)nc(-c3cccs3)nc2n(C)c1=O (configuration not stated),11%,>57
COCCNC(=O)CS(=O)Cc1nc(-c2ccccc2C)oc1C (configuration not stated),-5%,>57
CCOC(=O)CSc1nn(C)c(=S)s1,-11%,>57
COc1ccccc1NS(=O)(=O)c1cc(Cl)ccc1OC,-13%,>57
CCOC(=O)N1CCN(C(=O)C2CCN(S(=O)(=O)c3ccc(Br)s3)CC2)CC1,-2%,>57
O=C(Nc1cnc2ccccc2c1)N1CCOCC1,-8%,>57
COc1cc(C)nc(N2CCC(C(=O)NC3CCCCC3)CC2)n1,-1%,>57
CCCC/C=C/C(NC(=O)c1ccc(-c2ccccc2)cc1)c1ccccc1 (configuration not stated),-21%,>57
CC(CCc1ccccc1)NC(=O)C1CCN(c2nnc(-n3cccc3)s2)CC1 (configuration not stated),-15%,>57
N#C/C(=C\c1ccc(O)c(O)c1)C(=O)NCCCc1ccccc1,u,>57&>57
O=C(NCCOC(=O)c1ccc(C(=O)OCCNC(=O)c2ccccc2)o1)c1ccccc1,u,x
O=S(=O)(c1cccc2cccnc12)N1CCc2ccccc21,u,>57
CCN1CCN(C(c2cc(OC)ccc2OC)c2nnnn2Cc2ccccc2)CC1 (configuration not stated),13%,>57
NC([N-]/N=C/c1ccccn1)=[S]=[Fe].O=S(=O)(O)O,u,>57
O=C1CC(c2ccc(F)cc2)Sc2ccccc2N1 (configuration not stated),-9%,>57
Fc1cccc(/C=N\N=C/c2cccc(F)c2)c1,u,>57
c1ccc(COc2ccc(Nc3ncnc4nc[nH]c34)cc2)cc1,-11%,>57
O=C(CSc1nnc(-c2cccs2)o1)N1CCCCC1,11%,>57

# 15 consecutive entries from above, quoted:
SMILES,Anthrax LT inh,SmPrx2 inh
COc1ccccc1NS(=O)(=O)c1cc(Cl)ccc1OC,-13%,>57
CCOC(=O)N1CCN(C(=O)C2CCN(S(=O)(=O)c3ccc(Br)s3)CC2)CC1,-2%,>57
O=C(Nc1cnc2ccccc2c1)N1CCOCC1,-8%,>57
COc1cc(C)nc(N2CCC(C(=O)NC3CCCCC3)CC2)n1,-1%,>57
CCCC/C=C/C(NC(=O)c1ccc(-c2ccccc2)cc1)c1ccccc1 (configuration not stated),-21%,>57
CC(CCc1ccccc1)NC(=O)C1CCN(c2nnc(-n3cccc3)s2)CC1 (configuration not stated),-15%,>57
N#C/C(=C\c1ccc(O)c(O)c1)C(=O)NCCCc1ccccc1,u,>57&>57
O=C(NCCOC(=O)c1ccc(C(=O)OCCNC(=O)c2ccccc2)o1)c1ccccc1,u,x
O=S(=O)(c1cccc2cccnc12)N1CCc2ccccc21,u,>57
CCN1CCN(C(c2cc(OC)ccc2OC)c2nnnn2Cc2ccccc2)CC1 (configuration not stated),13%,>57
NC([N-]/N=C/c1ccccn1)=[S]=[Fe].O=S(=O)(O)O,u,>57
O=C1CC(c2ccc(F)cc2)Sc2ccccc2N1 (configuration not stated),-9%,>57
Fc1cccc(/C=N\N=C/c2cccc(F)c2)c1,u,>57
c1ccc(COc2ccc(Nc3ncnc4nc[nH]c34)cc2)cc1,-11%,>57
O=C(CSc1nnc(-c2cccs2)o1)N1CCCCC1,11%,>57

# The results go on.
SMILES,Anthrax LT inh,SmPrx2 inh
COc1cccc(C2=NOC(C(=O)Nc3ccc(OC)c(OC)c3)C2)c1 (configuration not stated),8%,>57
Cc1sc2nc(C(C)Nc3ccccc3N3CCOCC3)[nH]c(=O)c2c1C (configuration not stated),0%,>57
COn1c(SCc2cccnc2)nc2ccccc2c1=O,2%,>57
Cc1ccc(-c2nnc(SCC(=O)Nc3ccccc3N3CCOCC3)o2)cc1,-17%,>57
CSc1nnc(-c2ccncc2)n1CCCN1CCCC1=O,-1%,>57
CC1=C(C(=O)Nc2ccccc2Cl)C(c2ccc(N(C)C)cc2)NC(=O)N1 (configuration not stated),-27%,x
CCOC(=O)c1ccccc1NC(=O)CN(c1ccccc1OCC)S(C)(=O)=O,u,x
CCCCCC(C(=O)O)C(C)CC(=O)NC1CCCCC1 (configuration not stated),u,>57
O=C1C2CCCN2C(c2ccc(Br)cc2)N1c1ccc(F)cc1 (configuration not stated),-5%,>57
O=C(Nc1ccc(N2CCOCC2)cc1)C1CC1,7%,>57
Cc1oc(-c2nc3ccccc3n2C)cc1C(=O)c1ccccc1,-17%,>57
Cn1cnnc1Sc1nc2c(c(=O)n(C)c(=O)n2C)n1C,2%,>57
Cc1n[nH]c(C)c1S(=O)(=O)N1CCc2ccccc21,5%,>57
CC(C)CO[C@H](c1ccc2c(c1)OCO2)[C@H](C)Br,-6%[8 µM],>57
O=C(CN1C(=O)CSc2ncccc21)NCCN1CCOCC1,0%,>57
Cc1ccc2sc(NC(=O)CN3C(=O)CCC3=O)nc2c1C,15%,>57
CC1CCCC(C)N1C(=O)CN1CCN(c2nc(-c3ccc(F)cc3)cs2)CC1 (configuration not stated),-4%,>57
Cc1nc2cc(C(F)(F)F)ccc2n1C1CCN(CC(=O)NC(C)(C)C)CC1,7%,>57
CCOc1ccc(-n2c(=O)c3c(C)c(C)sc3n(CC(=O)NCc3ccco3)c2=O)cc1,2%,>57
COCCCn1c(=S)[nH]c2ccc(N3CCOCC3)cc2c1=O,-14%,>57
CCc1ccc2[nH]c(=O)c(C(c3nnnn3Cc3ccc(OC)cc3)N3CCOCC3)cc2c1 (configuration not stated),-5%,>57
COCC(=O)N1CCC2(CC1)CCN(c1ccncc1)CC2,-4%,>57
CCOC(=O)c1c[nH]c2c(Cl)ccc(Cl)c2c1=O,0%,x
CCOC(=O)CSc1nnc([C@H](CC(C)C)NC(=O)OC(C)(C)C)o1,x,>57
COC(=O)CC1(Cc2ccccc2)C(=O)NC(=O)NC1=O,10%,>57
CCCCN(C)C(=O)C(Cc1ccccc1)NS(=O)(=O)c1ccc2c(c1)CCC(=O)N2 (configuration not stated),9%,>57
COc1cc(C(=O)NCc2cn3ccsc3n2)cc(OC)c1OC,6%,>57
COC(=O)CSc1nnc2n1C(C)(C)Cc1ccccc1-2,8%,>57
COc1ccc(N(Cc2cc3cc(OC)ccc3[nH]c2=O)S(C)(=O)=O)cc1,x,>57
O=C(NC12CC3CC(CC(C3)C1)C2)N1CCC(O)CC1,11%,>57
Cc1cc(C(=O)NCCCc2ccccc2)no1,11%,>57
CCOC(=O)CCn1nnc(N)n1,-16%,>57
COc1ccc(OC)c(C2C(C(=O)c3cc4ccccc4o3)=C(O)C(=O)N2c2cc(C)on2)c1 (configuration not stated),u,>57
Nc1ccc(-c2ccc(N)cc2)cc1,-9%,x
COc1ccccc1C(=O)Nc1c(C)n(C)n(-c2ccccc2)c1=O,-3%,x
NS(=O)(=O)c1ccc(NC(=O)CCC2CCCCC2)cc1,-22%,x
CCn1c(SCC(=O)Nc2cccc(C)n2)nnc1-c1ccco1,-7%,>57
O=C(CN(C(=O)CCC(=O)Nc1nccs1)c1ccc2c(c1)OCO2)NCC1CCCO1 (configuration not stated),-6%,>57
CC(C)(C)n1nnnc1C(c1ccc2ncccc2c1)N1CCSCC1 (configuration not stated),-15%,>57
Cc1ccc(-c2nnn(CC(=O)N(Cc3cccs3)C(C(=O)NC3CCCC3)c3ccco3)n2)o1 (configuration not stated),5%,>57
CCc1ccc(CCC(=O)Nc2ccc(S(N)(=O)=O)cc2)o1,-2%,>57
O=C(Nn1c(=S)[nH]c2ccccc2c1=O)c1ccncc1,-4%,x
Cc1cccc(NC(=O)NCC(c2cccnc2)N2CCOCC2)c1 (configuration not stated),12%,>57
CCC(C)NC(=O)c1n[nH]c(=O)c2ccccc12 (configuration not stated),-5%,>57
O=C(Nc1ccncc1)Nc1ccc(F)cc1F,u,>57
Cc1cc2c(c(=O)o1)[C@@H](O)[C@H]1O[C@@H]1C2=O,-11%[8 µM],x
Cc1cc(N2CCC(C)CC2)nc(-n2nc(C)cc2C)n1,0%,>57
CCOC(=O)c1cn(CC(=O)Nc2ccc(C)cc2)nn1,-8%,>57
CCN1CCCC1CNC(=O)CN1C(=O)COc2ccc(C)cc21 (configuration not stated),-9%,>57
NC12CN3CN(CN(C3)C1)C2 (tested in a mixture with another compound),2%,>57
Cc1cc2oc(=O)cc(COC(=O)c3cccc(N(C)C)c3)c2cc1C,-5%,>57
CCCCC(c1nnnn1C1CCCC1)N1CCN(C(=O)c2ccco2)CC1 (configuration not stated),-6%,>57
Nc1nncn1C(=O)CCc1ccccc1,-14%,>57
Cc1sc2ncn(CC(=O)NCc3ccccn3)c(=O)c2c1S(=O)(=O)N1CCOCC1,8%,>57
CN1CCN(c2nc(-c3cccc(C#N)c3)nc3ccccc23)CC1,u,>57
CSc1cccc(NS(=O)(=O)c2cccs2)c1,-5%,>57
C=CCc1c(C)nc2c(C(=O)O)cnn2c1C,-8%,>57

# The list is partial (hit frequency here may not be typical).
